VACV Venus inh: inhibitors of vaccinia virus (Venus reporter); Vaccinia virus Venus reporter expression, fluorescence; AID 720580; Potency, µM (top dose mostly 36.5 µM), without a hit: at the highest dose activity change, negative = inhibition, usual class: inhibitors; 0.46% of 330,000 active; active means well fitted inhibition curve with a large enough effect; inconclusive means small, poorly fitted or top-dose-only effect; inactive means no such curve, though single readings can be large or run the other way; tested in A549 cells; further: nearly all actives have a fitted effect of over 30% in size; inactives centre near -10
VACV mCherry inh: vaccinia inhibition (mCherry reporter); Vaccinia virus mCherry reporter infection, fluorescence; about a quarter of the inactives have no number; Potency, µM (titrated, usually from 36.5 µM), for the others: at the top dose activity change, negative = inhibition, actives largely listed as inhibitors; 0.63% of 310,000 active; AID 720579; active = well fitted inhibition curve with a large enough effect; inconclusive = small, poorly fitted or top-dose-only effect; inactive = no such curve, though single readings can be large or run the other way; tested in A549 cells; further: nearly all actives have a fitted effect of over 35% in size; inactives centre near -10
Active calls of the source: *; i = inactive; ? = inconclusive; . = no result given; & = joins results of further samples; [ ] = remark or other dose. On the % scale 0 is the no-effect control and ±100 the full control effect; potency means the concentration at half of the fitted maximal effect.

SMILES | VACV Venus inh | VACV mCherry inh
CCOC(=O)c1cc2sccc2n1CC(=O)N1CCc2ccccc21 | -4% | -15%
CCCn1c(=N)c(C(=O)NC(C)c2ccccc2)cc2c(=O)n3ccccc3nc21 (centres undefined) | -20% | ?
Cn1cnnc1SCC(=O)Nc1ccccc1Oc1ccccc1 | -14% | i
Cc1cc(Nc2ccc(F)cc2Cl)n2ncnc2n1 | 3% | -1%
CCOc1cccc(C(=O)N(Cc2ccc(C)o2)C2CCS(=O)(=O)C2)c1 (centres undefined) | -10% | -10%
CCOC(=O)c1cnc(SCc2nc(N)nc(Nc3ccc(C)cc3)n2)nc1N | ? | ?
CCSCc1nc2ccccn2c1Br | -16% | i
CCCCOc1ccc(SCCCN2CCOCC2)cc1 | -18% | -4%
CCN(CC)c1cc2c(cc1F)c(=O)c(S(=O)(=O)c1ccc(OC)cc1)cn2Cc1ccccc1 | -21% | -17%
CCc1nnc(NC(=O)CSc2nnc(-c3ccoc3C)n2-c2ccccc2)s1 | -12% | -5%
CCOc1ccccc1NC(=O)c1cnc(N2CCOCC2)c2ccccc12 | -5% | -11%
Cc1cccc(C2=NN(c3ccccc3)[C@@H](C(=O)N3CCOC3=O)[C@@H]2c2ccc([N+](=O)[O-])cc2)c1 | 0% | i
COc1ccccc1NC(=O)C1=C(C)Nc2nc(SCc3ccccc3F)nn2C1c1cccnc1 (centres undefined) | -2% | -15%
N#Cc1ccccc1COC(=O)c1ccc2c(c1)OCCO2 | -13% | -6%
Cc1[nH]ccc(=O)c1Oc1ncc(C(F)(F)F)cc1Cl | -6% | i
CCOC(=O)N1CCN(C(=O)c2ccc3nc(SCc4ccc(F)cc4)n(C)c3c2)CC1 | -25% | -15%[1.46 µM]
Cc1c(C(=O)N(Cc2ccc(F)cc2)C2CCS(=O)(=O)C2)oc2ccccc12 (centres undefined) | 0%[7.34 µM] | 15%[7.34 µM]
COC(=O)c1c(-c2ccccc2)oc2c1C(OCCO)CCC2 (centres undefined) | -3% | 2%
COc1cc2c(c(OC)c1OC)-c1ccc(NCc3ccccc3)c(=O)cc1C(NC(C)=O)CC2 (centres undefined) | ? | -14%
Nc1nnc(SCc2ccc3c(c2)OCO3)s1 | -15% | -18%
CCc1nc2ccc(C(=O)N(C)CCCN(C)C)cn2c1N(C)Cc1cc2ccccc2s1 | 1% | i
Cn1nc(C(=O)N2CCN(c3ccccn3)CC2)c2ccccc2c1=O | -9% | -15%
COc1ccc(C(=O)Nc2cccc(-c3ccc4nncn4n3)c2)cc1OC | 10% | -15%
CNc1cncc(-c2cccc(NS(C)(=O)=O)c2)n1 | -4% | -15%
Cc1ccc(C)c(Cn2cnc3c(cnn3C(C)(C)C)c2=O)c1 | -18% | .

Looked up one by one from above, four records:
SMILES | VACV Venus inh | VACV mCherry inh
COc1ccccc1NC(=O)C1=C(C)Nc2nc(SCc3ccccc3F)nn2C1c1cccnc1 (centres undefined) | -2% | -15%
CCOC(=O)N1CCN(C(=O)c2ccc3nc(SCc4ccc(F)cc4)n(C)c3c2)CC1 | -25% | -15%[1.46 µM]
COC(=O)c1c(-c2ccccc2)oc2c1C(OCCO)CCC2 (centres undefined) | -3% | 2%
N#Cc1ccccc1COC(=O)c1ccc2c(c1)OCCO2 | -13% | -6%

The list continues.
SMILES | VACV Venus inh | VACV mCherry inh
Cc1cc(Br)ccc1OCCn1ccnc1 | -11% | -13%
Cc1cccc(OCc2ccc(C(=O)N3CCOCC3)o2)c1 | -9% | i
COc1cc(CCC(=O)NNC(=O)c2cccc(Cl)c2)cc(OC)c1OC | 4% | 7%
Cc1ccc(O)c(C(=O)c2cnn(-c3ccc(S(=O)(=O)N4CCOCC4)cc3[N+](=O)[O-])c2)c1 | 4% | -3%
CCOC(=O)C1(Cc2ccc(OC)cc2)CCN(C(=O)c2sc(C)nc2C)CC1 | ? | -13%
CCc1ccc(NC(=O)c2ccc(Cn3nc(N4CCN(c5ccccc5)CC4)ccc3=O)o2)cc1 | ? | ?
CC(C)OP(=O)(OC(C)C)C(Nc1ccccc1)c1cccc2c1OCO2 (centres undefined) | -14% | -24%
CN(Cc1ccc(C(C)(C)C)cc1)C(=O)c1ccc2c(=O)n3c(nc2c1)CCC3 | -13% | -3%
C=CCN(C(=O)c1cccc(S(=O)(=O)N2CCN(C)CC2)c1)c1nc(-c2ccccc2)cs1 | -25% | .
O=C(NCc1n[nH]c(=S)n1-c1ccccc1Cl)c1ccc(S(=O)(=O)N2CCCCC2)cc1 | 2% | -16%
Cc1cc(C(=O)COC(=O)c2cccs2)c(C)n1-c1c(C)n(C)n(-c2ccccc2)c1=O | -1% | -14%
O=C(OCC(=O)N1CCCC1)c1ccc(O)cc1 | 6% | -5%
COc1cc(-c2cc(=O)c3c(O)c(OC)c(OC)c(O)c3o2)ccc1O | -20% | -13%
O=C(COC(=O)c1cccc(S(=O)(=O)N2CCCCC2)c1)NC1CCCc2ccccc21 (centres undefined) | -13% | -13%
O=Nc1c2cc3ccccc3[nH]c-2c2ccccc12 | ? | ?
CC(=O)NC1CCC(C(=O)O)(c2ccccc2)C1 (centres undefined) | -4% | .
Cc1nc2cc(-c3cccc(F)c3)nn2c(C)c1CCC(=O)N1CCN(c2ccccn2)CC1 | -6% | -5%
COC(=O)/C=C/c1ccc2c(c1)OCO2 | -6% | -2%
Cc1cc2oc(=O)cc(CN(C)Cc3ccccc3F)c2cc1Cl | 10% | -25%
COc1ccc(C(CNC(=O)Cc2ccc(Cl)c(Cl)c2)N(C)C)cc1 (centres undefined) | -6% | -26%
Oc1ccc2ccccc2c1CNc1ccc2ccccc2c1 | ? | ?
Cc1ccc(S(=O)(=O)N(CC(=O)NCc2ccco2)C2CCCCC2)cc1 | -7% | -3%
CCc1nc2ccc(C(=O)NCCN3CCOCC3)cn2c1N(C)Cc1ccc(OC)cc1 | -2% | 4%
Cc1ccc(S(=O)(=O)NC(=O)C2(C)CCN2C(=O)Cc2ccc(-c3ccccc3)cc2)cc1 (centres undefined) | -10% | 30%
COc1ccccc1N1CC(C(=O)Nc2ccc(S(=O)(=O)N3CCCC3)cc2)CC1=O (centres undefined) | 3% | i
SMILES | VACV Venus inh | VACV mCherry inh
COC(=O)C(Cc1ccc(O)cc1)NC(=O)C(CC(=O)OC(C)(C)C)NC(=O)OC(C)(C)C (centres undefined) | -12% | i
COc1ccc(OC)c(-c2ccnc(-n3ncc(C(=O)N4CCN(CCO)CC4)c3C3CC3)n2)c1 | -4% | -11%
O=c1oc(-c2ccco2)nc2c1cnn2-c1ccccc1 | -27% | .
O=C(C[n+]1cc(-c2ccc(Cl)cc2)n2c1CCC2)N1c2ccccc2Sc2ccccc21 | -3% | i
CC(NC(=O)COC(=O)Cc1ccsc1)c1ccccc1 (centres undefined) | -2% | -10%
COc1cc(-c2nc(C)cnc2C)cc2c1OCCN(C(=O)Cn1nc(-c3ccccc3)c3ccccc3c1=O)C2 | 6% | -5%
COc1ccc(Cn2c(SCc3ccc(C(=O)NC4CCCCC4)cc3)nc3ccncc32)cc1 | -22% | ?
COc1ccc(NC(=O)c2cc(-c3ccncc3)nc3ccc(Br)cc23)cc1OC | 6% | -1%
O=C(NC(c1ccc(Cl)cc1)c1cccnc1)C1CCN(CCOc2ccc(Cl)cc2Cl)CC1 (centres undefined) | -17% | i
COc1ccc(S(=O)(=O)N2Cc3cnnn3-c3ccccc3C2C#N)cc1 (centres undefined) | -4% | -22%
CC(C)(C)c1ccc(CN2N=Nc3ccccc3S2(=O)=O)cc1 | ? | ?
COCCOC(=O)c1[nH]c2c(c1C)C(=O)CC(c1ccc(N(C)C)cc1)C2 (centres undefined) | -7% | .
COc1cccc(-c2ccc3ncnc(NCc4cccs4)c3c2)c1 | 0% | i
COc1cc(NC(=O)COc2c(C)cc(C)cc2[N+](=O)[O-])c(OC)cc1Cl | -4% | i
CC(O)c1nc2ccc(Cc3ccc4nc(C(C)O)[nH]c4c3)cc2[nH]1 (centres undefined) | -10% | .
COCCCn1cc(CN2CC(N3CCSCC3)CS2(=O)=O)nn1 (centres undefined) | 1% | -8%
COC(=O)C(CCSC)NC(=O)C(NC(=O)C1CCC(C)CC1)C(C)C (centres undefined) | -14% | .
CCOc1cc(/C=N/NC(=O)CN(CCc2ccccc2)S(=O)(=O)c2ccc(NC(C)=O)cc2)ccc1O | -16% | -23%
CCOC(=O)C1CCCN(S(=O)(=O)c2ccc(F)c(C(=O)Nc3ccc(F)c(F)c3)c2)C1 (centres undefined) | -13%&-11% | -10%&-10%
Nc1nc(-c2ccccc2)nc(-c2ccccc2O)n1 | ? | ?
Cc1cc(NC(=O)COC(=O)COc2ccc3c(c2)CCC3)no1 | -4% | -14%
O=C(c1cc2cc([N+](=O)[O-])ccc2oc1=O)n1cccn1 | -9% | i
O=C(NCc1cccs1)c1csc(COCCO)n1 | 10% | 3%
O=C(c1cccs1)c1cn(CCOc2ccccc2Cl)c2ccccc12 | -29% | -14%
Cc1ccc(S(=O)(=O)NCc2ccc(C(=O)NCCc3cccc(C)c3)cc2)cc1 | -10% | -5%

Reformatted: results already given.
Each structure is followed by: VACV Venus inh	VACV mCherry inh
- COc1cc(NC(=O)COc2c(C)cc(C)cc2[N+](=O)[O-])c(OC)cc1Cl
→ -4%	i
- CC(O)c1nc2ccc(Cc3ccc4nc(C(C)O)[nH]c4c3)cc2[nH]1 (centres undefined)
→ -10%	.
- COCCCn1cc(CN2CC(N3CCSCC3)CS2(=O)=O)nn1 (centres undefined)
→ 1%	-8%

Continued:
SMILES | VACV Venus inh | VACV mCherry inh
COc1ccccc1OCC(O)CO (centres undefined) | -11%&-13% | i
CC1(C)CC(=O)C2=C(C1)Nc1cc3c(cc1C2c1ccc2c(c1)OCO2)OCO3 (centres undefined) | -2% | -10%
Cc1nc(-c2ccc(NC(=O)C(C)(C)C)cc2)c(-c2ccccc2)o1 | -14% | -22%
COc1ccc(Cl)cc1CNCCSc1nnnn1C | 4% | 0%
CCCCOc1c(C(=O)Nc2ccccc2)nnn1-c1ccccc1 | -21% | -1%
COc1cc(OC)cc(C(=O)NC(=S)Nc2ccc3[nH]c(=O)[nH]c3c2)c1 | -14% | i
COc1cc(OC)cc(-n2nnnc2SCC(=O)Nc2nc3c(s2)CCCC3)c1 | -27% | -1%[1.46 µM]
CN1CCN(CC(=O)Nc2ccc([N+](=O)[O-])cc2C(=O)c2ccccc2)CC1 | -18% | -18%
CSc1nncc(/C(C)=N\Nc2ccccc2)n1 | -17% | i
CC1(C)CC(=O)C/C(=N\NC(=O)Cc2ccccc2)C1 | -13% | -20%
Cn1nc(C(C)(C)C)cc1N1C(=O)CCC1(C)C(=O)Nc1ccc2ccccc2c1 (centres undefined) | -16% | i
COc1ccc(C)cc1NC(=O)CSc1nnc2ccc(-c3cccnc3)nn12 | -16% | -19%
COc1cccc2c1Oc1ncccc1N(c1ccc(C(=O)NCc3ccccc3Cl)s1)C2 | -1% | 2%
COCCN1CCN(C(=O)C2CCC(=O)N(CCc3cccc(F)c3)C2)CC1 (centres undefined) | 1% | -1%
CCOc1cc(NCc2ccccc2)c2ncn(C(C)C)c2c1 | ? | ?
CCCNC(=O)c1ccc2c(c1)ncn2-c1ccccc1OC | -3% | -1%
Cc1nnc(SCC(=O)NC2CC2)n1CCc1ccccc1 | -10% | -3%
C[C@]12c3[nH]c4ccc(Cl)cc4c3CCN1C(=O)[C@@H](CC(=O)NCc1cccc(C(F)(F)F)c1)C[C@@H]2C(=O)N1CCCCC1 | ? | ?
CN(C)c1ccc(-c2c3ccccc3nc3ccccc23)cc1 | 5% | 15%
CCN(CC)C(=O)C1CCN(S(=O)(=O)c2c(C)noc2/C=C/c2cccc(OC)c2)CC1 | -11% | -1%
Cn1c(SCC(=O)N2CCOCC2)ncc(C(=O)Nc2ccc(F)cc2)c1=O | -7% | i
CCCC(=O)Nc1cc2c(cc1C(=O)c1ccccc1)OCCO2 | -11% | .
CCSc1nc2ccccc2n1Cc1nc(N)nc(N(C)C)n1 | -10% | -14%
CCOc1ccc(CCNC(=O)c2cc3cc4cc(OC)ccc4nc3s2)cc1OCC | -11% | -16%
CC(C)c1cnc2c(c1SCC(=O)NCc1ccccc1Cl)c(=O)n(C)c(=O)n2C | -14% | -14%
SMILES | VACV Venus inh | VACV mCherry inh
COc1ccccc1C(C(=O)NCc1ccc(F)cc1)N(C(=O)c1csnn1)C1CC1 (centres undefined) | -9% | -10%
O=C(COc1ccccc1-c1ccccc1)NCc1ccco1 | -4% | i
Cc1cc(C)n2nc[n+](C)c2n1 | ? | .
CC1(C(=O)Nc2ccc3c(c2)OCO3)CCN1C(=O)Cc1cc(F)ccc1F (centres undefined) | 0% | 3%
COc1ccc(-c2csc(=NCCO)n2-c2ccccc2)cc1 | -12% | -4%
COc1cccc(C2=NS(=O)(=O)N(C)C(C(=O)Nc3cccc(O)c3)=C2)c1 | 9% | 5%
Cc1ccccc1-c1nc(CN2CCC(C(=O)NCCCN3CCCC(C)C3)CC2)c(C)o1 (centres undefined) | -21% | i
Cc1noc(C)c1CS(=O)(=O)c1ccc(Br)cc1 | -10% | -9%
Cc1c(C#N)c(O)n(CCO)c(=O)c1N=Nc1ccccc1 | -8% | -5%

No new results follow: entries from further up.
SMILES | VACV Venus inh | VACV mCherry inh
COc1ccccc1C(C(=O)NCc1ccc(F)cc1)N(C(=O)c1csnn1)C1CC1 (centres undefined) | -9% | -10%
O=C(COc1ccccc1-c1ccccc1)NCc1ccco1 | -4% | i
Cc1cc(C)n2nc[n+](C)c2n1 | ? | .
CC1(C(=O)Nc2ccc3c(c2)OCO3)CCN1C(=O)Cc1cc(F)ccc1F (centres undefined) | 0% | 3%
COc1ccc(-c2csc(=NCCO)n2-c2ccccc2)cc1 | -12% | -4%
